TRPML1 agonist – agonists of human TRPML1 channel | Q9GZU1 | TRPML1-expressing cells, Ca2+ dye fluorescence, FDSS; host cell line not named in the record; reference of the full effect not given here | activation, % (test concentration not listed) | actives 0.12% (n = 410,000); in the data active = activation above about 50%; inconclusive = about 30% to 50%; inactive = below about 30%; note: 0% is about no effect; the text of the record puts the active cut at 80%
Target sequence (Q9GZU1 whole entry, looked up): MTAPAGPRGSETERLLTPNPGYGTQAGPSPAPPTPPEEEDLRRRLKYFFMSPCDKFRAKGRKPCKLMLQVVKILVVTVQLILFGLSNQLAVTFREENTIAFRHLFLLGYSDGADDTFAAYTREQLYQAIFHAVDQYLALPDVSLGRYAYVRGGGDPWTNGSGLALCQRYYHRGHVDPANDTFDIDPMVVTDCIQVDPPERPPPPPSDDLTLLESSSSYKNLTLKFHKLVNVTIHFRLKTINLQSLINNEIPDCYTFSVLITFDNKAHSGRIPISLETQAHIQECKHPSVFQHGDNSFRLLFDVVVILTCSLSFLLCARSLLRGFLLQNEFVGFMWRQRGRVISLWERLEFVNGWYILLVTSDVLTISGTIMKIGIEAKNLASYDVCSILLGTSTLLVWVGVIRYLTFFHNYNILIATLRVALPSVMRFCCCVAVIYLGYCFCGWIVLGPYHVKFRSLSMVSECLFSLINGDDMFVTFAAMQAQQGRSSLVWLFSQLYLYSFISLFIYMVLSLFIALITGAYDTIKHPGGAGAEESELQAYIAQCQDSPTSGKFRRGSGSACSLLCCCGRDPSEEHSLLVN
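In this qHTS format, compounds were pin-transferred onto Ca8-dye-loaded TRPML1-DL cells induced with Tet overnight, and intracellular Ca2+ fluorescence was recorded kinetically for 110 s after a 10 s baseline. A subsequent 4uM final 54-4 (EC80) addition followed by a second 110 s read served as the antagonist phase.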
TRPV1 PAM – human TRPV1 potentiation; TRPV1-expressing cells, Fluo-8 calcium influx, capsaicin EC20 potentiation; host cell line not named in the record; control for the full effect not named in the record; Q8NER1; actives 0.02% (n = 320,000); potentiation, % at 8.33 µM; active means potentiation above 80%; inconclusive means 30% to 80%; inactive means below 30%; note: 0% is about no effect
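Fluo-8 calcium influx in TRPV1-expressing cells, kinetic read (ex 480/em 520 nm). Compound added and read 3 min for agonist activity, followed by capsaicin at EC20 final and 2 min further read for enhancement.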
D2 PAM – positive allosteric modulators of human D2 dopamine receptor. P14416. DiscoveRx D2 beta-arrestin cells, luminescence, 90 min; 100% = 57 uM dopamine signal. potentiation, % (test concentration not listed). actives 0.23% (n = 360,000); active = potentiation of 50% or more; inconclusive = 30% to 50%; inactive = 30% or less;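 note: compound concentration not given in the record; tested on top of an EC20 dose of dopamine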
Target sequence (P14416 whole entry, looked up): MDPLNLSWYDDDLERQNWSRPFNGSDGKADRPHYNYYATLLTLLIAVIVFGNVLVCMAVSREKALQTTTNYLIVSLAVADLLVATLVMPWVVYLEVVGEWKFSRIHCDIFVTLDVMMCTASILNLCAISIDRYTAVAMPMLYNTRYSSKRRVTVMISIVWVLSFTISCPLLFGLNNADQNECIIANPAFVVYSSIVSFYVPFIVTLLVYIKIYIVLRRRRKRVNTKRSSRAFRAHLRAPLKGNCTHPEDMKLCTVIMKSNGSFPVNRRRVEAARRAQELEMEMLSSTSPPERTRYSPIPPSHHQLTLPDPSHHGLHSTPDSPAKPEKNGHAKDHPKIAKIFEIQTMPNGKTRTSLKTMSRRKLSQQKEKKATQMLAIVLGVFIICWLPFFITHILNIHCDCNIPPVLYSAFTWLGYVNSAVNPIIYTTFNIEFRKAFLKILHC
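PathHunter D2 cells, attached overnight at 37 deg C, received compound in DMSO plus dopamine at EC20 (50 nM final) for 90 min at 37 deg C. Beta-arrestin recruitment was read as luminescence after 1 h with detection reagent at ambient temperature.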
Six1-Eya2 inh – blocks human Six1 binding to Eya2 | Q15475+O00167 | AlphaScreen GST-Six1/His-Eya2 binding, biochemical; stronger effect = lower value; control for the full effect not named in the record | activity change, % (test concentration not listed) | actives 0.56% (n = 360,000) | AID 651725; in the data active = activity change below about -65%; inconclusive = about -30% to -65%; inactive = above about -30%; note: % is set by controls: 0 for no effect and ±100 for the full control effect; compound concentration not given in the record
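AlphaScreen luminescence read after one hour at 37 °C in darkness. Pin-transferred compounds met GST-Six1 and His-Eya2 protein (5X stock 250 nM/500 nM) plus glutathione donor and Ni-chelate acceptor beads (5X, 50 ug/mL).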
TRPML1 blocker – human mucolipin-1 channel inhibition; Q9GZU1; TRPML1-inducible cells, Ca2+ dye fluorescence, FDSS; stronger effect = lower value; inhibition of EC80 agonist-evoked calcium signal; activity change, negative = inhibition, % (concentration not given with the values); actives 0.02% (n = 390,000); AID 624415; in the data active means activity change below about -50%; inconclusive means about -30% to -50%; inactive means above about -30%;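 note: stimulus is agonist 54-4 at its EC80 concentration; % is set by controls: 0 for no effect and ±100 for the full control effect; compound concentration not given in the record; the text of the record puts the active cut at -80%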
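TRPML1-DL cells, Tet-induced overnight (~16 h, 37 °C) at 1,500 cells/well, were loaded with Ca8 no-wash dye plus quencher for 45-90 min at room temperature. Compounds were pinned during FDSS kinetic reading; agonist 54-4 at EC80 (4 uM final) then added.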
CtBP-E1A blk – CtBP/E1A binding inhibition; AlphaScreen GST-E1A/His-CtBP binding, 1536-well; stronger effect = lower value; control for the full effect not named in the record; activity change, % (no concentration beside the values); actives 0.49% (n = 340,000); in the data active means activity change below about -65%; inconclusive means about -30% to -65%; inactive means above about -30%; note: % is set by controls: 0 for no effect and ±100 for the full control effect; compound concentration not given in the record
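AlphaScreen with 125 nM GST-E1A and 125 nM His-CtBP (5X stocks) in Tris pH 8.0, 300 mM NaCl, BSA, Tween 20, TCEP. Compounds preincubated 2 h at 37 deg C, then glutathione donor/nickel acceptor beads added for 1 h at 37 deg C in dark.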
Starred values were filed as active, the others as inactive; u = inconclusive; x = no result given.

Each structure is followed by: TRPML1 agonist | TRPV1 PAM | D2 PAM | Six1-Eya2 inh | TRPML1 blocker | CtBP-E1A blk
1	Cc1cc(C)nc(N/N=C/C(Cl)=C/c2ccccc2)n1
→ 0.2 | 4 | -16 | -2 | 5 | -6
2	CC(C)(C)c1ccc(-n2ncc3c2CCCC3NC(=O)CCN2CCCCC2=O)cc1 (centres undefined)
→ -0.4 | -3 | 15 | -3 | 0 | 2
3	CCOC(=O)C1=CNS(=O)(=O)NC1c1ccc2ccccc2c1 (centres undefined)
→ -0.2 | x | -2 | 2 | -3 | -19
4	Cc1ccc(-c2cnc(C(O)c3cc(Cl)cc(Cl)c3)[nH]2)cc1 (centres undefined)
→ 2.8 | x | -17 | -21 | x | -17
5	Cc1csc(NC(=O)CSc2nnc(-c3ccoc3C)n2CCc2ccccc2)n1
→ -0.8 | 3 | 8 | -4 | 1 | -3
6	CSc1ccc(/C=C/C(=O)OCC(=O)N2CCN(S(=O)(=O)c3ccc(C)cc3C)CC2)cc1
→ 1.0 | 11 | -4 | -2 | 4 | u
7	CCN1C(=O)C(O)(CC(=O)/C=C/C=C/c2ccccc2)c2ccccc21 (centres undefined)
→ 0.5 | 0 | -17 | -1 | 2 | -3
8	O=C(NCC1CCCN(Cc2ccc3nonc3c2)C1)c1cccc(C(F)(F)F)c1 (centres undefined)
→ -0.4 | -6 | -16 | 9 | 4 | x
9	N#CCCN(Cc1ccccc1)C(c1ccnc2ccccc12)c1nnnn1-c1ccc2c(c1)OCCO2 (centres undefined)
→ 0.5 | x | x | -6 | x | -1
10	CC(C)(C)OC(=O)N1CCCC(C(=O)CC#N)C1 (centres undefined)
→ -0.3 | 14 | 4 | 0 | -3 | -2
11	CC(C)Oc1ccc(CN2CCC2(C)C(=O)Nc2cccc3cccnc23)cc1 (centres undefined)
→ -0.6 | x | -17 | 1 | x | 1
12	COc1ccc(-c2csc(NC3CCCCC3)n2)c(OC)c1
→ -0.5 | -1 | -13 | -9 | 12 | -22
13	COc1ccc(NC(=O)Cc2ccccc2F)cn1
→ -1.0 | -3 | -1 | -16 | 13 | -22
14	CCCCC(=O)Nc1cc(NC(=O)CCCC)cc(C(=O)O)c1
→ 0.7 | -7 | -4 | 4 | -5 | 1
15	COc1ccc(CC(=O)NC2CCS(=O)(=O)C2)cc1 (centres undefined)
→ -0.2 | -3 | -3 | 2 | -18 | 6
16	Cc1sc2nc(CC(=O)NN)[nH]c(=O)c2c1C
→ -1.1 | 1 | -6 | -1 | -9 | -18
17	COc1ccc(CCn2c(=N)c(C(=O)NCC3CCCO3)cc3c(=O)n4ccccc4nc32)cc1 (centres undefined)
→ 0.5 | -31 | -17 | u | 9 | x
18	CC(C)(C)NC(=O)C(=O)NNC(=O)c1ccccc1Br
→ -0.5 | -1 | 1 | 13 | -5 | 9
19	CCc1nnc(NC(=O)C2CCCN2S(=O)(=O)c2ccccc2)s1 (centres undefined)
→ 0.0 | 16 | 10 | 5 | -1 | 16
20	CC1=NNC(=O)C1CCC(=O)N/N=C/c1ccc(Cl)cc1Cl (centres undefined)
→ -0.5 | 6 | -15 | 0 | 21 | x
21	COc1ccc(N2C(=O)c3ccc(C(=O)Nc4cc(OC)ccc4OC)cc3C2=O)cc1
→ -0.5 | 5 | -4 | -2 | 63 | x
22	O=C(CSc1nnnn1C1CCCC1)NCc1ccc2c(c1)OCO2
→ 3.7 | 26 | -3 | -1 | 4 | -8
23	Oc1ccc[n+](/C=C\c2ccccc2)c1
→ -0.4 | -20 | -10 | 14 | 1 | 11
24	O=C(c1ccc2c(c1)OCO2)N1CCc2ccccc21
→ -0.7 | -4 | -8 | 4 | -6 | 5
25	Cc1cc(NC(=O)CCC(=O)N(C(C(=O)NC(C)(C)C)c2ccccc2Cl)C(C)(C)C)no1 (centres undefined)
→ 0.0 | -21 | -26 | -10 | 78 | -15
26	Cn1ncc(Cl)c1C(=O)N1CCN(c2ccc(F)cc2)CC1
→ 0.0 | -2 | -8 | 4 | -12 | -22
27	CC1=C(C(=O)N(C)C)CC(CC(=O)NCc2cccs2)C(=O)N1Cc1ccc(C(C)(C)C)cc1 (centres undefined)
→ -0.7 | x | -3 | -4 | -15 | 3
28	CC(=O)N1CCC(N(CCCOC(C)C)S(=O)(=O)c2ccc([N+](=O)[O-])cc2)CC1
→ 0.4 | 14 | 4 | 4 | 0 | x
29	CCN(CC)c1ccc(/C=C2\SC(N)=NC2=O)cc1
→ 7.9 | 10 | -4 | -3 | 0 | 2
30	Cc1ccc(CN2CC(N3CCC(c4ccccc4)CC3)CS2(=O)=O)cc1 (centres undefined)
→ -0.6 | x | -1 | -7 | x | -10
31	Cc1cccc(C(=O)Nc2ccc(S(=O)(=O)N3CCOCC3)cc2C)c1
→ 0.3 | u | -7 | 11 | -3 | 4
32	O=C(O)/C=C/C(=O)NCCC(c1ccccc1)c1ccccc1
→ 0.3 | 1 | -3 | 5 | 10 | -6
33	CCOc1cc(/C=C2/SC(=S)NC2=O)ccc1OC(=O)c1ccco1
→ 4.4 | 2 | -7 | -29 | 31 | u
34	COc1ccc(OC)c(S(=O)(=O)N/N=C(/C)c2ccc3c(c2)OCO3)c1
→ 1.2 | 0 | -7 | 4 | 1 | 6
35	N#CCCn1cc(/C=N/NC(N)=S)c(-c2ccc(-c3ccccc3)cc2)n1
→ 1.6 | 2 | -6 | -9 | 31 | -15
36	COc1ccc(N2CCN(C(CNC(=O)C(=O)NCCC3=CCCCC3)c3ccco3)CC2)cc1 (centres undefined)
→ 1.1 | 13 | -12 | -1 | 6 | -5
37	COc1cc(C2C(C#N)=C(N)Oc3cc(C)n(CCN4CCOCC4)c(=O)c32)cc(OC)c1OC (centres undefined)
→ -0.3 | -10 | -13 | 0 | 14 | -1
38	CC(NC(=O)CSc1ccc(S(=O)(=O)N2CCOCC2)cn1)c1ccc(Cl)cc1Cl (centres undefined)
→ -0.5 | x | 3 | 0 | -6 | 4
39	CN(C(=O)c1ccc2c(=O)n3c(nc2c1)CCCCC3)c1cccc(Cl)c1
→ 0.2 | 5 | -2 | -5 | 18 | -1
40	CCN1CCN(c2ncnc3c2cnn3-c2ccc(C)cc2C)CC1
→ 0.1 | 1 | -7 | -9 | -11 | -21
41	O=c1cc(-c2ccc(O)cc2)oc2c(O)c(O)c(O)c(O)c12
→ x | 1 | -28 | -27 | x | -24
42	CC(C)(C)NC(=O)CN(C(=O)Cn1nnc(-c2ccc(Cl)cc2)n1)C1CCN(Cc2ccccc2)CC1
→ -0.3 | u | -27 | -3 | -2 | -7
43	CC(C)[C@H](NC(=O)c1ccccc1F)C(=O)NCc1ccc(S(N)(=O)=O)cc1
→ -0.8 | 22 | 0 | -16 | 3 | 0
44	CC/C(=N\NC(=O)C1CC1)c1cccc(Cl)c1
→ 1.4 | -27 | -4 | 2 | -4 | -16
45	COc1ccc(-n2c(Cc3cccn3C)nnc2SCC(=O)Nc2ccc3c(c2)OCO3)cc1
→ 1.9 | -8 | 9 | -21 | 12 | -12
46	O=C(Cn1c(-c2ccc(Cl)cc2)noc1=O)N1CCN(c2ccccc2F)CC1
→ 2.5 | -12 | 11 | -3 | 31 | 0
47	CC(C)c1ccc(NC2CCCN(C(=O)CCN3CCOCC3)C2)cc1 (centres undefined)
→ -0.1 | -19 | -12 | -1 | -11 | -3
48	O=C(COc1ccccc1C(=O)NCc1ccccc1)Nc1ccccc1
→ 1.4 | -13 | 2 | -1 | -1 | -4
49	CC[C@]12c3[nH]c4ccc(Cl)cc4c3CCN1C(=O)[C@@H](CC(=O)NCc1ccc(OC)c(OC)c1)C[C@@H]2C(=O)N1CCN(C(=O)c2ccco2)CC1
→ -0.9 | x | -4 | 2 | -4 | 2
50	CCCCN(C(=S)Nc1cccc(SC)c1)C1CCN(C(C)=O)CC1
→ -0.9 | 1 | 1 | -6 | 30 | 0
51	Cc1ccc(S(=O)(=O)CC(c2ccccc2)N2CCCCC2)cc1 (centres undefined)
→ -0.7 | 1 | -10 | 3 | -1 | -9
52	COc1ccc(S(=O)(=O)c2ccc(O)cc2)cc1
→ 4.5 | -10 | -1 | 0 | 17 | -1
53	COc1ccc(CNC(=O)COC(=O)/C=C/c2ccco2)cc1
→ 1.8 | 5 | -2 | -2 | -10 | 10
54	Cc1[nH]c2ccc(F)cc2c1CCN(Cc1ccncc1)C(=S)Nc1cccc(F)c1
→ 0.2 | u | -3 | -16 | 6 | -2
55	COc1cc(NC(=O)CN(c2ccc(C)cc2)S(=O)(=O)c2c(C)nn(C)c2C)cc(OC)c1
→ 0.6 | -10 | -17 | 13 | 5 | 0
56	CCOc1ccc(/C=N/NC(=O)C(C)N(c2ccc(OC)cc2)S(C)(=O)=O)cc1 (centres undefined)
→ -0.5 | -11 | -7 | -7 | 11 | -4
57	O=C(Oc1ccccc1)N1CCN(C(=O)c2ccco2)CC1
→ -0.5 | 12 | 1 | 12 | -7 | -19
58	COc1ccc2[nH]c(=O)c(CN(C(C)=O)c3ccc(C)c(C)c3)cc2c1
→ 0.3 | 17 | -9 | 10 | 1 | 4
59	CC(C)N(C(=O)COc1ccc(Br)cc1Cl)C(C)C
→ 0.3 | -19 | -16 | 12 | 14 | 0
60	CCCCNC(=O)CSc1nc2cc(OC)c(OC)cc2c(=O)n1Cc1ccc(OC)cc1
→ -0.5 | 1 | -7 | 5 | -3 | 3

Later entries:
Each structure is followed by: TRPML1 agonist | TRPV1 PAM | D2 PAM | Six1-Eya2 inh | TRPML1 blocker | CtBP-E1A blk
61	Cc1ccc(S(=O)(=O)NCC(=O)OCC(=O)NC(=O)NC2CCCC2)cc1
→ 4.2 | -3 | -37 | 5 | 9 | x
62	Clc1ccc(NCc2nnc3n2CCCCC3)cc1
→ -0.4 | -19 | -10 | 5 | 4 | 0
63	CC(C)c1cc(NCCOCCO)n2c(nc3ccccc32)c1C#N
→ 0.8 | 1 | -7 | u | 5 | x
64	O=C(CSc1nnc(C2COc3ccccc3O2)o1)N1CCOCC1 (centres undefined)
→ 0.5 | -1 | -27 | 5 | -13 | 2
65	O=C(Nc1ccc2c(c1)OCO2)c1ccc(NC2CC2)c([N+](=O)[O-])c1
→ 1.2 | 2 | -29 | -28 | 0 | u

Random excerpt: 5 records from the list.
Each structure is followed by: TRPML1 agonist | TRPV1 PAM | D2 PAM | Six1-Eya2 inh | TRPML1 blocker | CtBP-E1A blk
64	O=C(CSc1nnc(C2COc3ccccc3O2)o1)N1CCOCC1 (centres undefined)
→ 0.5 | -1 | -27 | 5 | -13 | 2
61	Cc1ccc(S(=O)(=O)NCC(=O)OCC(=O)NC(=O)NC2CCCC2)cc1
→ 4.2 | -3 | -37 | 5 | 9 | x
62	Clc1ccc(NCc2nnc3n2CCCCC3)cc1
→ -0.4 | -19 | -10 | 5 | 4 | 0
63	CC(C)c1cc(NCCOCCO)n2c(nc3ccccc32)c1C#N
→ 0.8 | 1 | -7 | u | 5 | x
65	O=C(Nc1ccc2c(c1)OCO2)c1ccc(NC2CC2)c([N+](=O)[O-])c1
→ 1.2 | 2 | -29 | -28 | 0 | u

Taken from above.
In CtBP-E1A blk, #64 has 2
In CtBP-E1A blk, #62 has 0
In D2 PAM, #65 has -29
In TRPV1 PAM, #63 has 1

Compound activity deposited in PubChem BioAssay by National Center for Advancing Translational Sciences (NCATS).
